# Screening results (PubChem)
# ClpP mod: qHTS Assay for Activators of ClpP | ATP-dependent Clp protease proteolytic subunit (Bacillus subtilis (strain 168)), P80244 | purified B. subtilis ClpP, FRET peptide cleavage, 20 min | Potency, µM (titrated, usually from 57.5 µM), without a hit: at the highest dose activity change, negative = active | 340,000 compounds, 1.9% hits | AID 651965, 2013; active = well fitted falling curve with a large enough effect; inconclusive = small, poorly fitted or top-dose-only effect; inactive = no such curve, though single readings can be large or run the other way; also: potency is read from the fitted curve at half-maximal effect; the source files actives as falling curves though it sought activators and does not explain the sign; nearly all actives have a fitted effect of over 65% in size; many hits overshoot -100%
# Target sequence (P80244 whole entry, looked up): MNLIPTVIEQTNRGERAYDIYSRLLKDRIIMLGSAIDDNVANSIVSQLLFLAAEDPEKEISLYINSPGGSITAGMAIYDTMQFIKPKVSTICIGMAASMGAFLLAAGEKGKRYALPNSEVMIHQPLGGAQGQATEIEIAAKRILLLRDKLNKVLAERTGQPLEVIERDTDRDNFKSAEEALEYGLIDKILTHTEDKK
#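 FRET quenching reversal measured ClpP activation: 10 microg/mL B. subtilis ClpP at pH 8 with the FRET-FV decapeptide, read at 430 nm after 320 nm excitation. The 20-min minus 0-min signal was scaled between DMSO/no-enzyme wells and ADEP (5.8 microM final).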
# gsp agonist: agonists of gsp mutant (McCune-Albright syndrome) | gsp mutant cells, cAMP HTRF, 30 min; control for the full effect not named in the record | Potency, µM (top dose mostly 76.9 µM), inactives show top-dose activation (cAMP increase), usual class: activators | 340,000 compounds, 0.13% hits; active = well fitted activation curve with a large enough effect; inconclusive = small, poorly fitted or top-dose-only effect, or another doubt; inactive = no such curve, though single readings can be large or run the other way; cell line not stated here;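 also: phosphodiesterase inhibitor Ro 20-1724 added with compounds to block cAMP breakdown; potency is read from the fitted curve at half-maximal effect; nearly all actives have a fitted effect of over 60% in size; about a fifth of the inactives were tested at one dose only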
#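 Cells stably selected in G418 were plated at 2000/well, grown 16-24 hr, then given compounds in DMSO with the PDE inhibitor […] (300 uM solution added) for 30 min at 37C; cAMP was read by HTRF.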
# Menin-MLL FL inh: displaces fluorescein MLL peptide from human menin; Fluorescence polarization, fluorescein-MLL peptide displacement from menin; FP activity change, % at 61.4 µM; 290,000 tested, under 10 active; AID 1766; inconclusive = falling polarisation curve, or a change in total fluorescence; inactive = total fluorescence flat and polarisation flat or rising; no compound was filed as active; the % refers to the polarisation; negative = inhibition;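 also: % of control where 0% means no effect; inhibitors lower the polarisation; unlabelled MLL peptide was the positive control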
# Sfp inh: Sfp phosphopantetheinyl transferase inhibition; Q9F4F7; Biochemical Sfp PPTase activity, qHTS; Potency, µM, without a hit: max response, negative = inhibition, actives largely listed as inhibitors; 310,000 compounds, 3.5% hits; AID 1490; active = well fitted inhibition curve with a large enough effect; inconclusive = small, poorly fitted or top-dose-only effect, or another doubt; inactive = no such curve, though single readings can be large or run the other way;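 also: the enzyme is Sfp with the accession as filed and its product quenches rhodamine fluorescence; potency is read from the fitted curve at half-maximal effect; 0% = enzyme reaction without inhibitor and -100% = no enzyme wells; top concentration of the series not given in the record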
#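 Reaction rates are the 30-min fluorescence difference (ex 525, em 598 nm) in wells containing 15 nM Sfp, 5 uM rhodamine-CoA and 12.5 uM BHQ-2-YbbR at pH 7.6 with 10 mM MgCl2.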
# gsp antag: antagonizes gsp, the McCune-Albright syndrome mutation; gsp-mutant cells, cAMP HTRF, 30 min; control for the full effect not named in the record; Potency, µM (top dose mostly 76.9 µM), for the others: top-dose activity change, negative = inhibition, most hits filed as inhibitors; 340,000 compounds, 0.4% hits; AID 624288; active = falling curve of any shape with a large fitted effect; inconclusive = falling curve, mostly with a smaller effect; inactive = flat or rising curve; cell line not stated here;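 also: intracellular cAMP measured with PDE inhibitor Ro 20-1724 present during compound exposure; potency is read from the fitted curve at half-maximal effect; % is scaled to controls: 0 for no effect and ±100 for the full control effect; nearly all actives have a fitted effect of over 65% in size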
#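 HTRF cAMP measurement after 30 min RT detection following 30 min, 37C compound treatment alongside […] (added as 300 uM solution) in G418-selected cells seeded at 2000/well and grown 16–24 h.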
# TRPV1 PAM: enhances activation of the human vanilloid receptor TRPV1 | Q8NER1 | TRPV1-expressing cells, Fluo-8 calcium influx, capsaicin EC20 potentiation; host cell line not named in the record; control for the full effect not named in the record | potentiation, % at 8.33 µM | 320,000 compounds, 0.02% hits; active means potentiation above 80%; inconclusive means 30% to 80%; inactive means below 30%; also: 0% is about no effect
# Target sequence (Q8NER1 whole entry, looked up): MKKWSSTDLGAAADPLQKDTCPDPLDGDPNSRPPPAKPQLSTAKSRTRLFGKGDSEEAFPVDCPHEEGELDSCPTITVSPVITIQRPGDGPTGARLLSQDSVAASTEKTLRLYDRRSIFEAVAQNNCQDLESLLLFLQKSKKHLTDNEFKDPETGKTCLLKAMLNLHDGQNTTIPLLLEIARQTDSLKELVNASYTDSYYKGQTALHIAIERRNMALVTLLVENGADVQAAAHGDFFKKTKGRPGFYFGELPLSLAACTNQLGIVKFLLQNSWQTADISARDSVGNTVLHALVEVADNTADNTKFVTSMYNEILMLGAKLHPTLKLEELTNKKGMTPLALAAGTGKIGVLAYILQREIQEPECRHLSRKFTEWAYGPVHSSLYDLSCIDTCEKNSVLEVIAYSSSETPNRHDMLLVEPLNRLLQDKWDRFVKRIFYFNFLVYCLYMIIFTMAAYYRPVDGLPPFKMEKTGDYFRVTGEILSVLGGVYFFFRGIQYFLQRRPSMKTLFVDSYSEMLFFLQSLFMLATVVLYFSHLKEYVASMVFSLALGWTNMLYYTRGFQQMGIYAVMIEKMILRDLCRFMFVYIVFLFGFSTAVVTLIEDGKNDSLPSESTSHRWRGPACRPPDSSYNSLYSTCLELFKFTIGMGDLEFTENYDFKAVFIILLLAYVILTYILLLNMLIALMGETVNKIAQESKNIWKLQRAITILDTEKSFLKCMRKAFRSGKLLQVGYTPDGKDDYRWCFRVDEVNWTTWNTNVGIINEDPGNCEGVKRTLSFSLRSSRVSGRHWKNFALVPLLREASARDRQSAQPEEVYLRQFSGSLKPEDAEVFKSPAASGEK
#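 Fluo-8 calcium influx in TRPV1-expressing cells, kinetic read (ex 480/em 520 nm). Compound added and read 3 min for agonist activity, followed by capsaicin at EC20 final and 2 min further read for enhancement.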
# TRPML1 inh: blocks the human TRPML1 channel; activity change, negative = inhibition, % (concentration not given with the values); TRPML1-inducible cells, Ca2+ dye fluorescence, FDSS; stronger effect = lower value; inhibition of EC80 agonist-evoked calcium signal; Q9GZU1; 390,000 compounds, 0.02% hits; in the data active means activity change below about -50%; inconclusive means about -30% to -50%; inactive means above about -30%;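 also: stimulus is agonist 54-4 at its EC80 concentration; % is scaled to controls: 0 for no effect and ±100 for the full control effect; the text of the record puts the active cut at -80%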
#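 Calcium fluorescence in TRPML1-DL cells induced overnight with Tet: a 110 s read after compound pin addition, then a 110 s antagonist read after challenge with 54-4 at 4 uM final (EC80).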
# Numbers without * were called inactive; ? = inconclusive; / = no result given; & = joins results of further samples; [ ] = dose if it differs, or a comment.
Structure,Menin-MLL FL inh,gsp antag,TRPV1 PAM,ClpP mod,Sfp inh,TRPML1 inh,gsp agonist
c1ccc2c(c1)ncc1cccn12,2.2,6%,?,?,3%,0,11%
Cc1nnc(NC(=O)c2cc3ccccc3o2)s1,/,-12%,8,/,15%,-1,16%
COc1ccccc1-c1nnc(NC(=O)C2=COCCO2)o1,0.1,-9%,-7,2.0%,12%,13,-2%
CC(C)c1ccc(NC(=O)C(c2ccccc2)N2CCOCC2)cc1 (stereo not drawn),2.5,4%,/,1.0%,6%,20,-19%
Cc1cccc(C)c1NC(=O)C[N+](C)(C)CC(O)COc1cccc2ccccc12 (stereo not drawn),3.9,0%,-2,3.7%,0%,2,2%[15.4 µM]
O=C(Nc1cccc(Cl)c1)ON=C1c2ccccc2-c2ccccc21,0.8,-2%,-23,-0.3%,2%,5,-25%
O=C(CSc1nnc(-c2ccncc2)o1)Nc1ccccc1Cl,1.0,10%,-8,-2.3%,7%,-9,10%
CC(C)Sc1nnc(SCC(=O)N(C)C2CCS(=O)(=O)C2)s1 (stereo not drawn),/,18%,7,0.6%,/,36,5%
Cc1ccc(S(=O)(=O)NCc2nnnn2-c2ccc(F)cc2)cc1,/,/,/,2.7%,/,-8,?
Oc1ccccc1-c1cc(-c2ccco2)[nH]n1,2.8,-11%,-1,-8.4%,-3%,-15,-25%
COc1cc(-c2cc(=O)c3ccccc3o2)ccc1O,?,-1%,7,-4.1%,-9%&1%,1,4%
O=P(c1ccccc1)(c1ccccc1)c1nc(-c2ccc(Cl)cc2)oc1N1CCOCC1,3.2,-17%,-6,3.9%,?,9,?
Cc1cc(C2=NNC(=NC3CC3)SC2)c(C)n1-c1ccccc1F,8.8,19%,-1,-3.3%,45µM*,9,-7%
CC(Oc1cccc(Cl)c1)C(=O)Nc1cc(S(=O)(=O)N2CCOCC2)ccc1N1CCCCC1 (stereo not drawn),/,-8%,-7,/,/,5,14%[15.4 µM]
Cc1ccc(CNC(=O)C(CC(C)C)OC(=O)c2ccco2)cc1 (stereo not drawn),-0.4,-9%,-7,/,2%,2,13%
COc1ccc(Nc2nnc(SCC(=O)N3CC(=O)Nc4ccccc43)s2)cc1,-0.9,-28%,-9,/,-22%,5,-2%[15.4 µM]
C=C(C)Cn1c(CCCNC(=O)C(C)(C)C)nc2ccccc21,3.2,1%,0,0.4%,2%,5,-16%
CCCCSc1cc(C)nc2ncnn12,-1.2,4%,16,-1.8%,-6%,2,23%
Cc1cc2ccccn2c1C(=O)c1ccccc1Br,-0.2,-1%,20,/,7%,-8,-3%
CC(NC(=O)c1cc(-c2ccncc2)nc2ccc(Br)cc12)C1CCCO1 (stereo not drawn),0.5,-2%,-7,-2.8%,20%,2,-8%[15.4 µM]
CC(C)(CC(=O)OCC(=O)Nc1ccccc1F)CC1=NS(=O)(=O)c2ccccc2N1,/,-11%,-1,-1.6%&-0.1%,15%,0&1,-3%
COc1cccc(CN2CCN(Cc3cc4ccccc4[nH]3)CC2CCO)c1 (stereo not drawn),-0.6,11%,-1,-17%,12%,11,-31%[inhibitor]
CSC1=NCCN1C(=O)c1ccc(C)cc1,-1.4,-6%,-14,-3.4%,11%,28,12%[15.4 µM]
CC(C)(C)OC(=O)N(Cc1ccccc1)Cc1ccccc1OCc1cccc(NC(=O)C2CC2)c1,/,-14%,/,-1.3%,/,15,/
CCc1ccc(-c2cc(C)no2)cc1S(=O)(=O)NCCN1CCC(C)CC1,-0.5,12%,0,0.0%,0%,-1,-12%
CCc1ccc(C(C)NC(=O)c2ccc(F)cc2)cc1 (stereo not drawn),-0.3,-1%,-17,-0.6%,-5%,-12,0%
OC(COCc1ccccc1)CN1CCN(c2ccccc2)CC1 (stereo not drawn),3.4,16%,12,2.2%,2%,17,-4%
COC1CCN(Cc2c(C(=O)N3CCN(C4CCCCC4)CC3)nc3ccccn23)CC1,/,12%,2,-9.6%,-10%,-3,?
CCOC(=O)N1CCN(S(=O)(=O)N(C)C)CC1,-7.8,8%,25,-0.8%,-18%,8,22%
CN(Cc1nc2ccc(F)cc2[nH]1)Cc1nc(CC2CC2)no1,-0.8,5%,-2,-1.0%,10%,13,?
O=C1N(Cc2cccc(Cl)c2)C[C@@H]2C[C@@H](c3cccn3-c3ccccn3)N3CCC[C@@]123,1.2,7%,30,/,8%,30,8%[15.4 µM]
CC(=O)N1N=C(c2ccc(Br)cc2)OC1(C)CC(=O)Nc1ccccc1 (stereo not drawn),-0.6,-8%,14,25µM*,5%,-9,?
O=C1[C@H]2[C@@H](C(=O)N1c1cc(Cl)cc(Cl)c1)[C@]1(C(=O)Nc3ccccc31)N1CCC[C@@H]21,3.7,-8%,5,-1.1%,16%,-5,5%
Cc1cc(Oc2cnn(C(C)(C)C)c(=O)c2Cl)cc(C(C)C)c1,5.2,-18%,?,0.2%,-7%,-6,0%
CC(C)c1nnc(NC(=O)COc2ccc3ccccc3c2)s1,/,10%,10,1.7%,22%,17,1%
COc1cc(C(=O)c2cocc2C(=O)c2ccc3c(c2)OCO3)cc(OC)c1OC,-0.4,8%,11,0.4%,15%,26,13%[15.4 µM]
CCOC(=O)NN1C(=O)c2ccccc2NC1c1ccc(N(C)C)cc1 (stereo not drawn),1.0,7%,4,0.6%,-12%,5,7%[15.4 µM]
COc1cccc(CC2(CO)CCCN(Cc3cn[nH]c3-c3ccc(F)cc3)C2)c1 (stereo not drawn),-1.9,-1%,6,/,5%,-11,-7%[15.4 µM]
Cn1cccc1/C=N/n1c(-c2ccc(C(C)(C)C)cc2)n[nH]c1=S,66[activator],-19%,5,0.7%,-2%,-9,-31%
Oc1ccc(-c2nccs2)cc1,/,1%,/,/,/,76,-6%
O=S(=O)(c1ccc(F)cc1)N1CCCN(c2nccc(C(F)(F)F)n2)CC1,1.1,-1%,-14,-4.2%,5%,18,23%
O=C1C[C@@H]2c3c(cccc3CN1Cc1ccccc1)C[C@@H](O)[C@H]2O,/,10%,/,1.4%&1.3%,/,18,-24%
O=S(=O)(CCNCc1ccco1)NC1CCCCC1,/,5%,/,0.4%,/,20,/
O=C(CSc1ccc2ccccc2n1)N/N=C/c1ccccc1O,8.9,-21%,14,6.3%,4%,5,1%
COc1ccc(OC)c(-c2cc(C(=O)NCc3cccs3)no2)c1,5.1,-8%,-17,?,-10%,-17,2%
O=C(C1CCN(c2nnc(-n3cccc3)s2)CC1)N1CCN(c2cccc(C(F)(F)F)c2)CC1,1.4,-2%,-7,0.1%,19%,-11,?
N#Cc1c(N2CCOCC2)nc(-c2ccco2)c2c1CCCC2,5.0,?,-6,35µM*,45µM*,-20,-5%
Cc1ccc(S(=O)(=O)N2CCN(C(=O)COC(=O)COc3ccc(Cl)cc3)CC2)c(C)c1,/,18%,/,-1.6%,/,-12,3%
Cc1ccc(-c2nc(C)sc2CC(=O)OCC(=O)Nc2ccc(F)c(Cl)c2)cc1,/,-15%,/,3.9%,/,-17,-66%[inhibitor]
O=C(Cc1cc(=O)oc2cc(O)ccc12)NCC1CCC(C(=O)O)CC1 (stereo not drawn),1.9,-2%,2,?,13%,-1,6%
Cc1nc(-c2ccc(S(=O)(=O)N3CCOCC3)cc2)cs1,/,1%,-13,-6.4%,-9%,10,?
O=C(NCCN1CCOCC1)c1cc(Br)ccc1Cl,2.8,8%,1,/,5%,5,?
COc1ccccc1CN(Cc1cc2cc(C)ccc2[nH]c1=O)Cc1nnnn1CC1CCCO1 (stereo not drawn),2.1,-9%,-9,-16%,-22%,-2,-49%[inhibitor]
Cn1cccc1CNC(=S)Nc1cc(F)cc(F)c1,-1.5,3%,-1,/,-10%,15,-2%[15.4 µM]
COc1ccc(NC(=O)c2cc(-c3ccc(C)o3)nc3ccccc23)cc1,/,6%,/,-0.8%,/,-8,2%[15.4 µM]
Cc1ccc(C(=O)c2ccccc2C(=O)OCC(=O)NC(C)(C)C)cc1,-1.1,-2%,-16,-1.7%,16%,14,3%[15.4 µM]
CCOC(=O)c1nn(-c2ccccc2C)c2nc(-c3ccc(C)cc3)c(C#N)c(=O)n12,6.3,6%,14,35µM*,-9%,19,15%
CC1(C)Cc2noc(N)c2C(C)(C)N1OC(=O)c1ccco1,-6.8,0%,10,1.0%,11%,-2,2%[15.4 µM]
Cc1cnc(-c2nnc(N(C)C(=O)c3ccccn3)s2)cn1,2.0,/,2,/,3%,/,/
O=C(COC(=O)COc1ccccc1)Nc1ccc(Cl)cn1,/,9%,6,0.1%,/,-7,-24%

# Additional compounds:
Structure,Menin-MLL FL inh,gsp antag,TRPV1 PAM,ClpP mod,Sfp inh,TRPML1 inh,gsp agonist
Cc1cc(=O)nc2c3ccccc3n(CC(=O)NCCCN3CCOCC3)n12,/,10%,14,3.6%,15%,4,?
CCOc1ccccc1NC(=O)Cn1nnc(C(=O)NCc2cccs2)c1N,2.1,0%,0,-0.1%,50µM*,24&11,-6%[15.4 µM]
Cc1ccccc1Nc1nc(N)nc(COC(=O)c2cccc(S(=O)(=O)NCc3ccccc3)c2)n1,0.6,4%,18,1.1%,20%,2,-7%
N#Cc1ccccc1NC(=O)CC1CCCCC1,0.1,-4%,-2,2.5%,7%,5,?
Cc1cc(OC(C)C(=O)NCC(O)c2ccccc2)c2c(C)c(C)c(=O)oc2c1 (stereo not drawn),/,1%,?,3.5%,18%,8,14%
CN1CCc2c(sc(NC(=O)c3ccc([N+](=O)[O-])o3)c2C(N)=O)C1,/,?,2,-0.6%,-30%,14,-9%[15.4 µM]
COC(=O)c1ccc(NC(=O)C2CCN(S(C)(=O)=O)CC2)cc1,-1.5,17%,-2,2.6%,13%,-28,-39%[inhibitor]
CCN(CC)c1ccc(N)cc1,/,-5%,-3,1.2%,/,-7,/
